Sa RN4220 lethal = S. aureus RN4220 growth inhibition; inhibition, % (test concentration not listed); hit rate 0.33% among 330,000; OD600, 16 h;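 active means z-score of -3 or lower and OD600 up to 0.18 on both plates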;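 further: plate controls were untreated cells for no effect and reference antibiotic for full effect; stock transfer was 100 nL into about 80 µL; one replicate is shown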
BJeLR viability = kills HRASV12-expressing BJeLR cells. BJeLR (HRASV12) viability, CellTiter-Glo ATP luminescence, 48 h; reference of the scale not given here. inhibition, % (test concentration not listed). hit rate 0.17% among 300,000;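 active means replicate mean above 50%; inconclusive means above 50% but judged a plate artefact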;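 further: 50 nL library stock added to about 25 µL; numbers are from one replicate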
ugtP null kill = compounds lethal to S. aureus RN4220 ugtP deletion mutant | OD600 growth, 16 h; some inactives read as strong as hits | growth inhibition, % (test concentration not listed) | hit rate 0.54% among 330,000 | AID 1259309;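 active means z-score under -3 and OD600 up to 0.15 on both plates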;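 further: plate controls were untreated wells for no effect and antibiotic for full effect; wells of about 80 µL received 100 nL stock; the first replicate is given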
Autofluor counter = compound fluorescence in toxin protease inhibitor counterscreen | compound autofluorescence counterscreen, microsphere flow cytometry; active compounds read high | fluorescence intensity (no concentration beside the values) | hit rate 3.1% among 360,000 | AID 624483;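 active means at least 3 SD above the mean of all compounds, about 16000 in these data; inconclusive means too few beads counted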;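 further: 100 nL of 1 mM stock went into each well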
PrP UTR inh = suppresses PrP 5' UTR mRNA reporter expression; cell-based PrP 5' UTR mRNA reporter, plate reader; inhibition, % (no concentration beside the values); hit rate 0.35% among 340,000; AID 488862;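 active means every replicate at 50% or more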;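 further: 0 = median of the neutral control wells; tested in H4 reporter cells; numbers are from one replicate; inactives centre near -14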
Mtb hypoxia rep = reduces hypoxia-regulated biosensor signal in M. tuberculosis; M. tuberculosis hypoxia-regulated fluorescent reporter, fluorescence; fluorescence inhibition, % (test concentration not listed); hit rate 0.1% among 300,000; AID 1159583;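 active means 35 to 45% if threefold the growth effect, above 45% if 1.5-fold the growth effect; inactive means the rest, general growth blockers included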;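 further: wells of about 50 µL received 100 nL stock; 0% = vehicle wells and 100% = reference inhibitor wells; whole bacteria with a GFP reporter of the hypoxia response; strong numbers were not always called active; many hits fall short of the cut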
Mtb hypoxia rep growth = second read-out of Mtb hypoxia rep, no call of its own (marks repeat the call); growth inhibition, %; measured here: M. tuberculosis growth (absorbance);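 0% = vehicle and 100% = reference antibiotic; read after six days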
* hit, by the source's call; & = joins results of further samples. This is a random part of the collection (roughly 4.1% active in at least one column).

A first look:
What do the screens show for `Nn1c(SCc2ccc(F)cc2)nnc1-c1ccccn1`?
Sa RN4220 lethal: 4.6; BJeLR viability: -4; ugtP null kill: 0; Mtb hypoxia rep: -6; Mtb hypoxia rep growth: 5

Results for FC(F)(F)c1ccc(NC(=S)NC2CCCCC2)cc1 ?
Sa RN4220 lethal: 76; BJeLR viability: -4; ugtP null kill: 82; Autofluor counter: 4326; PrP UTR inh: -23; Mtb hypoxia rep: 3; Mtb hypoxia rep growth: 7

The whole of this part, from the start:
What do the screens show for `Nn1c(SCc2ccc(F)cc2)nnc1-c1ccccn1`?
Sa RN4220 lethal: 4.6; BJeLR viability: -4; ugtP null kill: 0; Mtb hypoxia rep: -6; Mtb hypoxia rep growth: 5

Results for FC(F)(F)c1ccc(NC(=S)NC2CCCCC2)cc1 ?
Sa RN4220 lethal: 76; BJeLR viability: -4; ugtP null kill: 82; Autofluor counter: 4326; PrP UTR inh: -23; Mtb hypoxia rep: 3; Mtb hypoxia rep growth: 7

Results for COc1ccc(NC(=O)CC2C(=O)N(c3ccc(Cl)cc3)C(=S)N2NC(=O)c2cccc(F)c2)cc1 (stereo not given) ?
Sa RN4220 lethal: -6.3; BJeLR viability: 6; ugtP null kill: -10; Autofluor counter: 9444; PrP UTR inh: -10; Mtb hypoxia rep: -6; Mtb hypoxia rep growth: -4

What do the screens show for `CCOc1ccc(OCCn2c(=S)[nH]c3c(N)ncnc32)cc1`?
Sa RN4220 lethal: -0.6; BJeLR viability: 2; ugtP null kill: 8; Autofluor counter: 3749; PrP UTR inh: -32; Mtb hypoxia rep: 6; Mtb hypoxia rep growth: 8

Results for O=C(NCCCCc1ccccc1)NC[C@@H]1CC[C@@H](Cc2ccc(-c3ccccc3)cc2)O1 ?
Sa RN4220 lethal: -4.6; ugtP null kill: -6; Autofluor counter: 3969; PrP UTR inh: -28; Mtb hypoxia rep: 4; Mtb hypoxia rep growth: -1

How did O=C(Cc1ccc(S(=O)(=O)N2CCOCC2)s1)Nc1nc2c(s1)CCCC2 do in these assays?
Sa RN4220 lethal: -13; BJeLR viability: 3; ugtP null kill: -12; Autofluor counter: inconclusive; PrP UTR inh: -4; Mtb hypoxia rep: 17; Mtb hypoxia rep growth: 7

How did O/N=C1/CCCSc2ccccc21 do in these assays?
BJeLR viability: -5; Autofluor counter: 4271; PrP UTR inh: -9

How did C/C(=N\NC(=O)c1cccnc1)c1ccc(Br)cc1 do in these assays?
BJeLR viability: -3; Autofluor counter: 3988; PrP UTR inh: -14

What do the screens show for `O=c1cnnc(NCc2ccccc2)[nH]1`?
Sa RN4220 lethal: -2.4; BJeLR viability: -7; ugtP null kill: 8; Autofluor counter: 3436; PrP UTR inh: -3

Results for COc1ccc(-c2nn(-c3ccccc3)cc2C(=O)NC(=S)N2CCOCC2)cc1OC ?
Sa RN4220 lethal: 2.9; ugtP null kill: 1; Autofluor counter: 3693; PrP UTR inh: -21; Mtb hypoxia rep: 8; Mtb hypoxia rep growth: 11

Results for CC(=O)Nc1cccc(C(C)=NNC(N)=S)c1 ?
Sa RN4220 lethal: 2.6; ugtP null kill: 8

Results for CCc1cc(C(=O)N2CCN(S(=O)(=O)c3ccccc3F)CC2)sc1C ?
Sa RN4220 lethal: 5.5; ugtP null kill: 11; Autofluor counter: 2898; PrP UTR inh: -17; Mtb hypoxia rep: 7; Mtb hypoxia rep growth: 3

How did COc1cccc2c(=O)cc(C)n(CC(=O)Nc3cccc(C)c3)c12 do in these assays?
Sa RN4220 lethal: 13; BJeLR viability: 5; ugtP null kill: 6; Autofluor counter: 2290; PrP UTR inh: -22; Mtb hypoxia rep: 9; Mtb hypoxia rep growth: 5

Results for c1ccc(Oc2c3ccccc3nc3ccccc23)cc1 ?
Sa RN4220 lethal: 3.6; BJeLR viability: 9; ugtP null kill: 13; Mtb hypoxia rep: 16; Mtb hypoxia rep growth: 11

How did N#Cc1ccccc1CN1C(=O)S/C(=C/c2cccn2-c2cccc(C(=O)O)c2)C1=O do in these assays?
Sa RN4220 lethal: 6.1; BJeLR viability: 0; ugtP null kill: -22; Autofluor counter: 2977; PrP UTR inh: 3

What do the screens show for `Cn1c(N2CCCC2)nc2c1c(=O)[nH]c(=O)n2C`?
Sa RN4220 lethal: 2.6; BJeLR viability: -3; ugtP null kill: 5; Autofluor counter: 3722; PrP UTR inh: -24; Mtb hypoxia rep: 0; Mtb hypoxia rep growth: 3

How did O=C(NNC(=O)c1cccs1)c1ccc(Cl)cc1 do in these assays?
Sa RN4220 lethal: 9.3; BJeLR viability: 0; ugtP null kill: -3; Autofluor counter: 2314; PrP UTR inh: -8; Mtb hypoxia rep: -5; Mtb hypoxia rep growth: -1

How did Cn1ccnc1SC(C(=O)O)c1ccccc1 (stereo not given) do in these assays?
Sa RN4220 lethal: 3.7; BJeLR viability: -5; ugtP null kill: 17; Autofluor counter: 2912; PrP UTR inh: -7; Mtb hypoxia rep: 4; Mtb hypoxia rep growth: -15

How did CC(=O)C1=C(O)C(=O)N(CCC(=O)O)C1c1ccccc1Cl (stereo not given) do in these assays?
Sa RN4220 lethal: 2.5; BJeLR viability: -5; ugtP null kill: 10; Autofluor counter: 7989; PrP UTR inh: -21; Mtb hypoxia rep: 8; Mtb hypoxia rep growth: 8

Results for COc1ccc(F)cc1S(=O)(=O)n1cnc2ccccc21 ?
Sa RN4220 lethal: 2.9; BJeLR viability: -4; ugtP null kill: 9; Autofluor counter: 3207; PrP UTR inh: -12; Mtb hypoxia rep: 3; Mtb hypoxia rep growth: -8

How did O=S(=O)(c1cccc(-c2cn3ccccc3n2)c1)N1CCCC1 do in these assays?
Sa RN4220 lethal: -0.9; BJeLR viability: 9; ugtP null kill: 1; Autofluor counter: 4393; PrP UTR inh: -18; Mtb hypoxia rep: -1; Mtb hypoxia rep growth: -1

Results for OCC1(CCCc2ccccc2)CCN(Cc2cnc(N3CCOCC3)s2)CC1 ?
Sa RN4220 lethal: 1.8; BJeLR viability: 5; ugtP null kill: 2; Autofluor counter: 4278; PrP UTR inh: -6; Mtb hypoxia rep: 13; Mtb hypoxia rep growth: -1

How did Cc1ccc(NC(=O)Cn2c(=O)n(Cc3ccco3)c(=O)c3ccccc32)c(C)c1 do in these assays?
Sa RN4220 lethal: -1.0; BJeLR viability: -7; ugtP null kill: 4; Autofluor counter: 4126; PrP UTR inh: -60; Mtb hypoxia rep: 5; Mtb hypoxia rep growth: -1

How did CC1CN(c2nc3ccccc3nc2SCC(=O)Nc2ccc(F)cc2)CC(C)O1 (stereo not given) do in these assays?
Sa RN4220 lethal: -5.2; BJeLR viability: 1; ugtP null kill: 2; Autofluor counter: 5248; PrP UTR inh: -19; Mtb hypoxia rep: 5; Mtb hypoxia rep growth: 1

Results for CCC(NC(=O)c1oc2ccccc2c1COC)c1ccc(OC)cc1 (stereo not given) ?
BJeLR viability: -4; Autofluor counter: 3905; PrP UTR inh: 9

Results for O=C(NCc1ccccc1)C1CCN(S(=O)(=O)N2CCCCCC2)CC1 ?
Sa RN4220 lethal: 0.7; BJeLR viability: -5; ugtP null kill: 11; Autofluor counter: 7726; Mtb hypoxia rep: 8; Mtb hypoxia rep growth: 4

What do the screens show for `CNC(=O)C(=O)Nc1cc2c3c(c1)CCN3C(=O)CC2`?
Sa RN4220 lethal: 1.8; BJeLR viability: 5; ugtP null kill: 3; Autofluor counter: 5857; PrP UTR inh: -18; Mtb hypoxia rep: -12; Mtb hypoxia rep growth: -4

Results for COc1ccc2nc3oc(C(=O)N4CCC5(CC4)OCCO5)cc3cc2c1 ?
Sa RN4220 lethal: -2.8; BJeLR viability: 5; ugtP null kill: -4; Autofluor counter: 1990; PrP UTR inh: -26; Mtb hypoxia rep: 2; Mtb hypoxia rep growth: 0

What do the screens show for `Fc1ccccc1-c1n[nH]c(=S)n1/N=C/c1c[nH]c2ccccc12`?
BJeLR viability: 5; Autofluor counter: 3614; PrP UTR inh: 2

What do the screens show for `CC(C)(C)NCC(O)COc1ccc(Br)cc1` (stereo not given)?
Sa RN4220 lethal: 1.7; BJeLR viability: -1; ugtP null kill: 9; Autofluor counter: 2258; PrP UTR inh: -22; Mtb hypoxia rep: 1; Mtb hypoxia rep growth: 10

What do the screens show for `O=C(CC(Sc1n[nH]c(-c2ccccc2)n1)c1ccccc1)NCc1ccccc1` (stereo not given)?
Sa RN4220 lethal: 0.4; BJeLR viability: -9; ugtP null kill: 8; Autofluor counter: 2082; PrP UTR inh: -23; Mtb hypoxia rep: -2; Mtb hypoxia rep growth: -4

What do the screens show for `COc1ccc(-c2cc(-c3ccc(OC)cc3)nc(-c3ccc4c(c3)NC(=O)CO4)c2)cc1`?
Sa RN4220 lethal: -10; BJeLR viability: -4; ugtP null kill: 6; Autofluor counter: 23016*; PrP UTR inh: -16; Mtb hypoxia rep: 0; Mtb hypoxia rep growth: 9

What do the screens show for `CC(C)(C)NC(=S)NC(=O)C12CC3CCC(CC(C3)C1)C2`?
Sa RN4220 lethal: -1.9; BJeLR viability: 7; ugtP null kill: 35; Autofluor counter: 2429; PrP UTR inh: -6; Mtb hypoxia rep: -6; Mtb hypoxia rep growth: -9

What do the screens show for `CCC(=O)N1CCc2cc(S(=O)(=O)CCC(=O)NCc3cccc(OC)c3)ccc21`?
Sa RN4220 lethal: -1.7; BJeLR viability: -6; ugtP null kill: -5; Autofluor counter: 5670; PrP UTR inh: -9; Mtb hypoxia rep: -9; Mtb hypoxia rep growth: 7

What do the screens show for `Cc1cccc(N2CCN(C(=O)c3ccc(-n4cncn4)c([N+](=O)[O-])c3)CC2)c1C`?
Sa RN4220 lethal: 2.1; BJeLR viability: -9; ugtP null kill: 18; Autofluor counter: 6269; PrP UTR inh: -16; Mtb hypoxia rep: 3; Mtb hypoxia rep growth: 0

What do the screens show for `CC(C)(C)C1C=C(C(=O)NC2CC2)OC(OCc2ccc(CO)cc2)C1` (stereo not given)?
Sa RN4220 lethal: 3.0&9.5; ugtP null kill: 1&-3; Mtb hypoxia rep: 11&15; Mtb hypoxia rep growth: 2&11

What do the screens show for `O=C(Nc1cc(Cl)ncn1)c1ccccc1`?
Sa RN4220 lethal: 2.7; BJeLR viability: 0; ugtP null kill: 26; Mtb hypoxia rep: 10; Mtb hypoxia rep growth: -11

How did CC(Cc1ccccc1)NC(=O)c1cc2ccccc2o1 (stereo not given) do in these assays?
Sa RN4220 lethal: 6.2; BJeLR viability: -2; ugtP null kill: 4; Autofluor counter: 3698; PrP UTR inh: -56

How did O=c1c2ccccc2nc(CSc2ncnc3nc[nH]c23)n1-c1ccc(Cl)c(Cl)c1 do in these assays?
Sa RN4220 lethal: 2.7; BJeLR viability: -12; ugtP null kill: 8; Autofluor counter: 4031; PrP UTR inh: -26; Mtb hypoxia rep: 8; Mtb hypoxia rep growth: 9

Results for CN(CC(=O)N1CCOCC1)S(=O)(=O)c1ccc2ccccc2c1 ?
Sa RN4220 lethal: 1.2; BJeLR viability: -11; ugtP null kill: -1; PrP UTR inh: -10; Mtb hypoxia rep: -6; Mtb hypoxia rep growth: 0

Results for COc1ccc(/C=C2\SC(N)=NC2=O)cc1 ?
Sa RN4220 lethal: 6.0; BJeLR viability: 0; ugtP null kill: 2; Autofluor counter: 3494; PrP UTR inh: -9; Mtb hypoxia rep: 9; Mtb hypoxia rep growth: 3

What do the screens show for `O=C(COCc1ccccc1)N[C@@H](Cc1ccc(O)cc1)C(=O)O`?
BJeLR viability: -6; Autofluor counter: 2901; PrP UTR inh: -19

How did COc1ccc(OC)c(S(=O)(=O)NCc2cc(-c3ccccc3)no2)c1 do in these assays?
Sa RN4220 lethal: -0.3; BJeLR viability: 4; ugtP null kill: 0; Autofluor counter: 5832; PrP UTR inh: -3; Mtb hypoxia rep: 2; Mtb hypoxia rep growth: -3

How did NC(=O)N/N=C/c1c(F)cccc1F do in these assays?
BJeLR viability: 10; Autofluor counter: 2029; PrP UTR inh: 2

How did C#CCOCCOCCOCCNc1nc(N2CCN(C(=O)C(CCCCN)n3cc(C(N)CO)nn3)CC2)nc(N2CCN(C(=O)C(CCC(=O)O)n3cc(C(N)Cc4ccc(O)cc4)nn3)CC2)n1 (stereo not given) do in these assays?
Sa RN4220 lethal: 4.9; ugtP null kill: 4; Mtb hypoxia rep: 1; Mtb hypoxia rep growth: 8

Results for Cc1ccc(S(=O)(=O)N(C)C)cc1NC(=O)c1cc(=O)c2ccccc2o1 ?
Sa RN4220 lethal: -0.4; BJeLR viability: -4; ugtP null kill: -6; Autofluor counter: 4350; PrP UTR inh: -7; Mtb hypoxia rep: -1; Mtb hypoxia rep growth: 2
